# Compound activity from PubChem.
# rRNA inh HTS – inhibitors of bacterial rRNA selective over humanized ribosomes. hit rate 1.6% among 350,000. AID 720706. GFP signal change (wild-type ribosome), % (no concentration beside the values). E. coli WT GFP vs humanized-ribosome RFP mutants, fluorescence, 24 h; active compounds read low; DMSO median 0, no signal -100;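 active means significant combined selectivity score with lowered wild-type GFP, culture density cut under 30%, mutant RFP and density less affected; inactive means any of these conditions unmet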; further: one replicate is shown; some compounds called inactive have numbers as strong as hits
# rRNA inh HTS OD600 – also measured in rRNA inh HTS; calls as there; OD600 change, %; measured here: OD600 growth;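 optical density of the mix in the first replicate; 0 = DMSO median and -100 = no signal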
# rRNA inh HTS RFP – second read-out of rRNA inh HTS, no call of its own (marks repeat the call); RFP signal change, %; measured here: RFP humanized mutant strains;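 first replicate; 0 = DMSO median and -100 = no signal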
# An asterisk follows results filed as active; & = joins results of further samples.
SMILES,rRNA inh HTS,rRNA inh HTS OD600,rRNA inh HTS RFP
COc1cccc(CNC(=O)C[C@@H]2CC[C@H]3[C@@H](COc4ccc(NS(=O)(=O)c5ccccc5F)cc4C(=O)N3C)O2)c1,3,0,-1.5
C[C@@H]1CN([C@H](C)CO)C(=O)c2cccc(NC(=O)c3nc4ccccc4s3)c2O[C@H]1CN(C)C,-7,0,1.3
C[C@H]1CN([C@@H](C)CO)C(=O)c2cccc(NC(=O)c3nc4ccccc4s3)c2O[C@@H]1CN(C)CC1CCCCC1,0,1,-4.0
C[C@@H]1CN([C@@H](C)CO)C(=O)c2cccc(NC(=O)CCCCCC(=O)Nc3ccccc3N)c2O[C@@H]1CN(C)C(=O)Nc1ccc2c(c1)OCO2,1,5,0.6
COCC#Cc1ccc2c(c1)O[C@H](CN(C)S(=O)(=O)c1cccc(F)c1)[C@H](C)CN([C@H](C)CO)S2(=O)=O,-9,-8,3.6
C[C@@H]1CN([C@@H](C)CO)C(=O)Cc2cc(NS(=O)(=O)c3cn(C)cn3)ccc2O[C@H]1CN(C)S(=O)(=O)c1ccccc1,2,5,1.1
COc1cccc(NC(=O)N2CC3(C2)[C@H](c2ccccc2)[C@H](CO)N3C(=O)C2CC2)c1,-1,1,-1.0
Cc1noc(C)c1NC(=O)N(C)C[C@H]1Oc2ccc(NC(=O)C3CC3)cc2CC(=O)N([C@@H](C)CO)C[C@H]1C,4,12,-1.7
CC(C)NC(=O)Nc1ccc2c(c1)CC(=O)N(C)C[C@@H](C)[C@@H](CN(C)C)O2,1,9,-2.7
C[C@@H]1CC=CC[C@@H](c2ccc3c(c2)OCO3)NC(=O)[C@H](C)N(C)C(=O)c2ccccc2O1 (mixture of isomers),-2,3,9.0
C[C@@H]1CN([C@@H](C)CO)C(=O)c2cc(NS(=O)(=O)c3ccc(Cl)cc3)ccc2O[C@@H](C)CCCCO[C@@H]1CN(C)C(=O)Nc1ccc(C(F)(F)F)cc1,1,-1,-3.4
C[C@H]1CCCCO[C@@H](CN(C)C(=O)CCC(F)(F)F)[C@@H](C)CN([C@@H](C)CO)C(=O)c2cc(NS(=O)(=O)c3cn(C)cn3)ccc2O1,-1,6,-1.5
COc1ccc2c3c([nH]c2c1)[C@@H](CO)NCC31CN(S(=O)(=O)c2cccs2)C1,-1,8,1.9
C[C@@H]1CN([C@H](C)CO)C(=O)c2cc(NC(=O)CCC(F)(F)F)ccc2O[C@H]1CN(C)C(=O)Nc1cccc2ccccc12,3,6,1.1
Cc1ccc(S(=O)(=O)NN(Cc2ccccc2)Cc2ccccc2)cc1,-1,12,-1.1
CN1OC[C@@H]2CN(Cc3ccc4c(c3)OCO4)[C@H](c3ccc(-n4ccnc4)cc3)C[C@@H]21,-28,-13,-2.3
CC(=O)N(C)C[C@@H]1[C@@H](c2ccccc2)[C@H](CO)N1C(=O)C1CCC1,2,12,-0.5
C[C@@H]1CCCCO[C@H](CN(C)Cc2ccc(C(F)(F)F)cc2)[C@@H](C)CN([C@@H](C)CO)C(=O)c2cc(NC(=O)Cc3ccccc3)ccc2O1,-8,-38,23
Cc1noc(C)c1NC(=O)Nc1ccc2c(c1)C(=O)N([C@@H](C)CO)C[C@@H](C)[C@H](CN(C)C(=O)Nc1ccc(F)cc1)OCCCC[C@H](C)O2,0,-3,1.9
O=C(C[C@H]1CC[C@H]2[C@@H](COC[C@H](O)CN2C(=O)Nc2cccc(F)c2)O1)NCCCN1CCOCC1,-15,-24,1.2
COc1ccccc1-c1ccc2c(c1)[C@H]1[C@H](CCN1S(=O)(=O)c1cccc(C)c1)[C@@H](CO)N2,-1,7,1.8
C[C@@H]1CCCCO[C@@H](CN(C)C(=O)c2ccncc2)[C@@H](C)CN([C@H](C)CO)C(=O)c2cc(NS(=O)(=O)c3ccc(F)cc3)ccc2O1,-1,-2,0.2
CC(C)NC(=O)N(C)C[C@H]1Oc2cc(C#CC(C)(C)O)ccc2S(=O)(=O)N([C@H](C)CO)C[C@H]1C,4,-4,-4.9
Cc1ccc(S(=O)(=O)N(C)C[C@H]2Oc3ccc(NC(=O)Cc4ccccc4)cc3CC(=O)N([C@@H](C)CO)C[C@H]2C)cc1,0,2,2.4
COC(=O)C[C@@H]1C=C[C@@H](NC(=O)Nc2cccc(F)c2)[C@@H](CO)O1,0,-7,-0.7

# The listing continues:
SMILES,rRNA inh HTS,rRNA inh HTS OD600,rRNA inh HTS RFP
CCC(=O)N(C)C[C@H]1Oc2cc(C#Cc3ccccc3)ccc2S(=O)(=O)N([C@@H](C)CO)C[C@H]1C,-6,-26,6.4
CCCC#Cc1ccc([C@@H]2[C@@H](CO)N3CCCCN(S(=O)(=O)CC)C[C@@H]23)cc1,-9,-56,11
CNC[C@@H]1Oc2c(NC(=O)Nc3ccc(F)cc3)cccc2C(=O)N([C@@H](C)CO)C[C@H]1C,0,-8,-0.3
COc1ccc(CN(C)C[C@H]2Oc3ccc(NC(=O)Cc4cn(C)c5ccccc45)cc3C(=O)N([C@H](C)CO)C[C@@H]2C)cc1,1,-1,2.1
CCC(=O)Nc1ccc2c(c1)C(=O)N(C)[C@H]1CC[C@H](CC(=O)NCc3ccccc3Cl)O[C@@H]1CO2,0,3,-2.2
C[C@H]1CN([C@@H](C)CO)C(=O)CCCn2nncc2CO[C@@H]1CN(C)S(=O)(=O)c1ccc2c(c1)OCCCO2,-2,0,0.1
CO[C@H]1CN(C)C(=O)c2ccc(NS(C)(=O)=O)cc2OC[C@H](C)N(CCC(F)(F)F)C[C@@H]1C,-4,-4,-1.9
CCC(=O)Nc1ccc2c(c1)C(=O)N(C)[C@H]1CC[C@H](CC(=O)N3CCc4ccccc4C3)O[C@H]1CO2,-1,4,1.4
COc1cc(OC)nc(Nc2nc(C(N)CCc3ccccc3)cs2)n1 (stereo unspecified),-36,-59,-3.1
CN(C)c1ncnc2c1ncn2[C@H]1CN(Cc2ccc(Cl)cc2)C[C@@H](CO)O1,10,9,0.6
Cc1cccc(-c2cc(NCCc3cccnc3)n3nccc3n2)c1,-18,-9,15
COCCNC(=O)C1(C)CCCN(Cc2csc3ccccc23)C1 (stereo unspecified),2,3,-3.1
CCNC(=O)C[C@@H]1CC[C@@H]2[C@@H](COc3ccc(NC(=O)c4cccs4)cc3C(=O)N2C)O1,1,-1,-2.2
C[C@H](CO)N1C[C@H](C)[C@H](CN(C)S(=O)(=O)c2cccc(F)c2)Oc2ncc(-c3cccc(F)c3)cc2C1=O,-2,17,3.2
COc1ccc2c3c(n(C)c2c1)[C@H](CO)N(C(=O)CN(C)C)CC31CCN(Cc2nccs2)CC1,3,13,-1.9
Cc1ccc(-c2nn(-c3ccccc3)cc2C=C2SC(=S)N(CCS(=O)(=O)O)C2=O)cc1,-1,14,0.8
COCCNC(=O)C[C@H]1CC[C@H]2[C@H](COc3ccc(NC(=O)Nc4cccc(F)c4)cc3C(=O)N2C)O1,3,12,0.0
C[C@H]1CN([C@@H](C)CO)C(=O)Cc2cc(NC(=O)CCN3CCOCC3)ccc2O[C@H]1CN(C)S(=O)(=O)c1ccc(F)cc1,2,0,-1.3
CN1C(=O)c2cc(NC(=O)c3cnccn3)ccc2OC[C@H]2O[C@H](CC(=O)O)CC[C@H]21,3,5,2.2
O=C(Nc1ccc(F)cc1)N1CC(=O)N2[C@H](CO)[C@H](c3ccc(C#Cc4cccnc4)cc3)[C@@H]2C1,-7,0,-0.5
COc1cccc(C(=O)N2CCC[C@H]2C(=O)N2CCC[C@H]2C(=O)NCc2ccncc2)c1,25,15,1.4
O=C1c2ccccc2C(c2nnnn2C2CCCCC2)N1CCc1ccc(O)cc1 (stereo unspecified),-18*,-8.1*,6.1*
C[C@@H]1CN([C@@H](C)CO)C(=O)c2cc(-c3ccncc3)cnc2O[C@H]1CN(C)C(=O)c1cccc(F)c1,2&1,7&-4,0.7&-2.0
C[C@@H]1CN([C@H](C)CO)C(=O)c2cccc(NC(=O)c3ccc(-c4nccs4)cc3)c2O[C@H]1CN(C)Cc1ccc(C(=O)Nc2ccccc2N)cc1,-1,2,-1.5
C[C@@H]1CN([C@@H](C)CO)C(=O)c2cc(NC(=O)C3CCCCC3)ccc2O[C@H]1CN(C)Cc1ccc(C(F)(F)F)cc1,-5,-11,0.6

# As a short view, some entries already given:
SMILES,rRNA inh HTS,rRNA inh HTS OD600,rRNA inh HTS RFP
CCC(=O)N(C)C[C@H]1Oc2cc(C#Cc3ccccc3)ccc2S(=O)(=O)N([C@@H](C)CO)C[C@H]1C,-6,-26,6.4
CCCC#Cc1ccc([C@@H]2[C@@H](CO)N3CCCCN(S(=O)(=O)CC)C[C@@H]23)cc1,-9,-56,11
CNC[C@@H]1Oc2c(NC(=O)Nc3ccc(F)cc3)cccc2C(=O)N([C@@H](C)CO)C[C@H]1C,0,-8,-0.3
COc1ccc(CN(C)C[C@H]2Oc3ccc(NC(=O)Cc4cn(C)c5ccccc45)cc3C(=O)N([C@H](C)CO)C[C@@H]2C)cc1,1,-1,2.1
CCC(=O)Nc1ccc2c(c1)C(=O)N(C)[C@H]1CC[C@H](CC(=O)NCc3ccccc3Cl)O[C@@H]1CO2,0,3,-2.2
C[C@H]1CN([C@@H](C)CO)C(=O)CCCn2nncc2CO[C@@H]1CN(C)S(=O)(=O)c1ccc2c(c1)OCCCO2,-2,0,0.1
CO[C@H]1CN(C)C(=O)c2ccc(NS(C)(=O)=O)cc2OC[C@H](C)N(CCC(F)(F)F)C[C@@H]1C,-4,-4,-1.9
CCC(=O)Nc1ccc2c(c1)C(=O)N(C)[C@H]1CC[C@H](CC(=O)N3CCc4ccccc4C3)O[C@H]1CO2,-1,4,1.4
COc1cc(OC)nc(Nc2nc(C(N)CCc3ccccc3)cs2)n1 (stereo unspecified),-36,-59,-3.1

# More entries
SMILES,rRNA inh HTS,rRNA inh HTS OD600,rRNA inh HTS RFP
CCc1nc2ccc(C(=O)NCCc3ccccn3)cn2c1N(CC)Cc1cccc(Br)c1,-13,-24,2.9
CCCN(C)C[C@H]1OCCCC[C@H](C)Oc2ccc(NS(=O)(=O)c3ccc(OC)cc3)cc2C(=O)N([C@@H](C)CO)C[C@H]1C,3,-7,-4.8
C[C@@H]1CN([C@H](C)CO)C(=O)c2cccc(NC(=O)c3cnccn3)c2O[C@@H]1CN(C)Cc1ccncc1,2,6,-1.6
COc1ccc(CN(C)C[C@H]2Oc3ccc(NC(=O)NC4CCCCC4)cc3CC(=O)N([C@H](C)CO)C[C@@H]2C)cc1,1,-13,-0.1
CCCNC(=O)C[C@@H]1CC[C@@H]2[C@H](COC[C@@H](O)CN2Cc2ccc(Cl)c(Cl)c2)O1,-2,-5,-3.2
CCNC(=O)C[C@H]1CC[C@H]2[C@@H](COc3ccc(NC(C)=O)cc3C(=O)N2C)O1,2,1,-0.9
C[C@H]1CN([C@@H](C)CO)C(=O)c2c(c3ccccc3n2C)-c2ccccc2CO[C@H]1CN(C)S(=O)(=O)c1cccs1,-4,4,-1.5
C[C@@H]1CN([C@H](C)CO)C(=O)c2cc(-c3cccc(C(=O)N(C)C)c3)cnc2O[C@@H]1CN(C)S(=O)(=O)c1ccc(F)cc1,0,10,-1.4
CNc1cncc(-c2c(OC)cccc2OC)n1,6,13,3.3
C[C@@H]1CN([C@@H](C)CO)C(=O)c2cc(NC(=O)Nc3ccc(C(F)(F)F)cc3)ccc2O[C@@H]1CN(C)Cc1ccc(C(=O)O)cc1,5,2,2.1
O=C(C[C@@H]1C=C[C@H](NC(=O)Nc2ccc3c(c2)OCO3)[C@H](CO)O1)NCc1ccccc1,-2,-5,-0.8
CCN(C[C@H]1N[C@H](CO)[C@H]1c1ccc(-c2cccc(F)c2)cc1)C(=O)COC,-4,4,-2.3
C[C@H]1CN([C@@H](C)CO)C(=O)c2cc(C3=CCCC3)cnc2O[C@@H]1CN(C)C,3,3,-0.8
CC(C)(C)c1ccc(C(=O)N2CCC2(C)C(=O)Nc2ccc3[nH]ncc3c2)cc1 (stereo unspecified),-28,-58,-6.4
COc1ccc(-c2coc3c(C(=O)Nc4cc(OC)c(OC)c(OC)c4)cccc23)c(C)c1,-6,5,-3.6
CN1C(=O)c2cc(NC(=O)c3cccs3)ccc2OC[C@@H]2O[C@H](CC(=O)O)CC[C@@H]21,-1,5,-1.4
C[C@H]1CN([C@@H](C)CO)C(=O)c2cc(C#CCN(C)C)cnc2O[C@H]1CN(C)Cc1ccccn1,1,3,-3.5
C[C@@H]1CN([C@H](C)CO)S(=O)(=O)c2ccc(C#C[C@@H](C)O)cc2O[C@@H]1CN(C)C(=O)C1CCCCC1,0,5,-1.1
CCCCC[C@@H]1CCCCC[C@@H](O)C[C@@H](O)[C@@H](O)/C=C/C(=O)O1,-1,0,-2.2
C[C@H](CO)N1C[C@H](C)[C@H](CN(C)C(=O)Nc2ccc(C(F)(F)F)cc2)Oc2ccc(NC(=O)CCCCCC(=O)Nc3ccccc3N)cc2C1=O,-2,-3,-2.5
Nc1cc(C(=O)N2CCN(c3ccccc3Cl)CC2)ccc1N1CC2CC(C1)c1cccc(=O)n1C2 (stereo unspecified),-13,-38,2.6
O=C(NCCCN1CCOCC1)[C@@H]1[C@@H](CO)[C@@H]2Cn3c(ccc(C4=CCCC4)c3=O)[C@H]1N2,2,11,-1.3
CCS(=O)(=O)N1CCC2(CC1)CN(S(=O)(=O)c1cn(C)cn1)[C@H](CO)c1[nH]c3cc(OC)ccc3c12,2,11,-1.1
C[C@@H]1CN([C@@H](C)CO)S(=O)(=O)c2ccc(Br)cc2O[C@@H]1CN(C)C(=O)C1CCC1,1,3,4.3
C[C@H]1CN([C@@H](C)CO)C(=O)c2cc(NC(=O)CCC(F)(F)F)ccc2O[C@@H]1CN(C)S(=O)(=O)c1ccccc1,-2,10,-0.6

# This is a subset; the hit share may differ from the screen's.
